Screens deposited in PubChem by Center for Chemical Genomics, University of Michigan.
HIV TAR-Tat – TAR RNA-Tat peptide displacers, HIV-1, primary screen, biochemical, FRET, FAM/TAMRA-labeled Tat; HIV-1 TAR RNA, Tat peptide displacement FRET; stronger effect = higher value; hit rate 0.6% among 100,000; z-score (test concentration not listed);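 further: score is relative to mean and SD of negative controls; some compounds called inactive have numbers as strong as hits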
CDC25B CDK2 inh – primary biochemical HTRF screen for blockers of M-phase inducer phosphatase 2 binding to CDK2/cyclin A; P30305+P24941; HTRF CDC25B-CDK2/CyclinA binding, anti-His/anti-Flag; stronger effect = higher value; z-score (test concentration not listed); AID 1259370, 2018; hit rate 0.72% among 94,000;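 further: score is relative to mean and SD of negative controls; strong numbers were not always called active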
* = called active by the depositor; · = not tested or not shown.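 How the source made its calls: active means z-score from 3 up in half or more of its runs; inactive means the rest.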

SMILES	HIV TAR-Tat	CDC25B CDK2 inh
COc1cccc(C(=O)NC(NC(=S)Nc2ccc(Cl)cc2Cl)C(Cl)(Cl)Cl)c1 (stereo not drawn)	·	2
Cc1ccc(-c2noc(CSc3nc(C)cc(C)n3)n2)cc1	·	-1.15
O=C(Cc1ccc(NC2=NC3CS(=O)(=O)CC3S2)cc1)NCCCN1CCCC1=O (stereo not drawn)	1.05	-1.01
O=C(CCNS(=O)(=O)c1ccc(Br)s1)N1CCCC1	·	0.33
CCN(CC)S(=O)(=O)c1ccc(-c2ccc(S(=O)(=O)N(CC)CC)cc2)cc1	2.2	·
CC1CC(C)CN(c2cc(NCCCC(=O)O)c3c4c(onc24)-c2ccccc2C3=O)C1 (stereo not drawn)	-1.81	3.04*
Cn1c(NCc2cn[nH]c2-c2cccs2)nc2ccccc21	-0.44	-2.25
C=CCNC(=O)c1ccc2c(=O)n(CCOC)c(=O)[nH]c2c1	·	-0.5
CC1=C(C(=O)NCCCN2CCCC2=O)C2(CCN(S(C)(=O)=O)CC2)OC1=O	0.32	·
Cc1ccc(C(C)(C)C)c(OC(=O)CSc2nc(-c3ccco3)nc3cc(=O)[nH]n23)c1	0.71	·
COc1cccc(C2C3=C(Nc4c2c(=O)[nH]c(=O)n4C)c2ccccc2C3=O)c1OC (stereo not drawn)	0.9	-2.11
Nc1c(-c2ccc(Cl)cc2)[nH]c2ccccc12	1.07	·
O=C1c2ccccc2-c2ccc(N3CCOCC3)c3cccc1c23	-3.92	-1.03
Cc1nc(-c2ccc(NS(=O)(=O)c3ccc(Cl)cc3)cc2)cs1	-1.5	0.52
Cn1c(-c2ccccc2)[n+](C)c2ccccc21	1.28	-1.58
Cc1ccc(CNC(=O)c2ccc(C)c(NC(=O)C3=CSCCO3)c2)o1	0.72	·
Cc1ccc(C(=O)CSc2nc(N)cc(=O)[nH]2)cc1	-1.43	-0.17
N#Cc1cccnc1NNC(=O)c1ccccc1C(=O)O	·	-1.5
CC1CN(C(=O)N2CCC(C(=O)NC3CCCC(C)C3C)CC2)c2ccccc2O1 (stereo not drawn)	1.12	·
CCC(Oc1ccc2c3c(c(=O)oc2c1C)CCC3)C(=O)OC(C)C (stereo not drawn)	·	-1.68

Some values from the list.
HIV TAR-Tat result of `CC1CN(C(=O)N2CCC(C(=O)NC3CCCC(C)C3C)CC2)c2ccccc2O1` (stereo not drawn) = 1.12
HIV TAR-Tat result of `O=C1c2ccccc2-c2ccc(N3CCOCC3)c3cccc1c23` = -3.92
HIV TAR-Tat result of `COc1cccc(C2C3=C(Nc4c2c(=O)[nH]c(=O)n4C)c2ccccc2C3=O)c1OC` (stereo not drawn) = 0.9
CDC25B CDK2 inh result of `N#Cc1cccnc1NNC(=O)c1ccccc1C(=O)O` = -1.5
HIV TAR-Tat result of `Cn1c(-c2ccccc2)[n+](C)c2ccccc21` = 1.28
HIV TAR-Tat result of `Cc1ccc(C(=O)CSc2nc(N)cc(=O)[nH]2)cc1` = -1.43

The list continues:
SMILES	HIV TAR-Tat	CDC25B CDK2 inh
CC1CCc2nc(N)c(C#N)c(-c3ccncc3)c2C1 (stereo not drawn)	-1.08	-0.33
CN1CCN(C(=O)c2cnc3sc(N4CCCC4)nn3c2=O)CC1	-1.16	·
O=C(NCC1CCCO1)c1c(-c2ccc(Cl)cc2)nc2n1CCS2(=O)=O (stereo not drawn)	-0.91	-1.38
C=CCn1c(=O)c(C(=O)Nc2cccc(O)c2)c(O)c2ccccc21	-1.06	-0.51
O=C1c2ccccc2-c2onc3c(N4CCOCC4)cc(Nc4ccc5c(c4)OCO5)c1c23	-0.81	0.7
COc1cc(C(CC(=O)O)CC(=O)N2CCC(n3cccc3)CC2)cc(OC)c1OC (stereo not drawn)	·	-2.1
CCOC(=O)CC(=O)Nc1cc2c(cc1N1CCCC1)n(C)c(=O)n2C	0.43	·
CCC(C(=O)NCCCN1CCCCC1)N1C(=O)CCn2nc(C)cc21 (stereo not drawn)	0.46	·
Cc1cc(C)cc(NS(=O)(=O)c2ccc3c(c2)C(C)(C)C(=O)N3)c1	-0.22	·
CCOC(=O)c1c(N)sc2c1CCCC2=O	0.67	-2.57
COC(=O)C1=C(C(=O)c2ccc(C)cc2)C(c2ccccc2F)n2nnnc2N1 (stereo not drawn)	1.26	0.43
COc1ccc2c(c1)C(SCC(=O)NC1CC1)CC(C)(C)O2 (stereo not drawn)	0.86	-0.18
COC(=O)c1cnc(NCc2ccco2)c2ccccc12	-0.06	·
Cc1ccc(S(=O)(=O)N2CCc3ccccc3C2)cc1C	·	0.56
CCc1nc(SCC(=O)N2CCOCC2)c2c(=O)n(C)c(=O)n(C)c2n1	0.79	·
CCC(C)NC(=O)Cn1c(C(=O)OC)ccc1-c1ccco1 (stereo not drawn)	1.75	·
O=S1(=O)CCC(S(=O)(=O)N2CCN(Cc3ccc4c(c3)OCO4)CC2)C1 (stereo not drawn)	0.12	-2.27
S=C1NCN(Cc2ccccc2)CN1Cc1ccccc1	·	-1.41
O=C(Cn1ncc2c3ccccc3n(Cc3ccccc3)c2c1=O)N1CCCC1	·	-0.61
O=C(O)C1CCN(c2c(-c3ccccc3)c3cc(Cl)ccc3[nH]c2=O)CC1	-0.86	-0.79
CCCCCSc1nnc2c(n1)OC(CC)N(C(C)=O)c1ccccc1-2 (stereo not drawn)	1.21	-1.44
CC(C(=O)O)C1SC(=O)NC1=O (stereo not drawn)	·	-2.25
CNC(=O)c1c(NC(=O)c2cccs2)sc2c1CCC2	0.55	·
Cc1cccc(C2CC(c3ccc(Cl)cc3)Nc3nnnn32)c1 (stereo not drawn)	0.4	·
COC(=O)c1c(NC(=O)C2=Cc3cc(OC)ccc3OC=C2)sc2c1CCC(C)C2 (stereo not drawn)	0.07	-1.7
O=C1C2C(c3ccccc3)OC3(C(=O)c4ccccc4C3=O)C2C(=O)N1CCc1ccc(F)cc1 (stereo not drawn)	-0.35	-0.18
CCOc1ccccc1CNS(=O)(=O)c1cc(-c2cc(C)no2)ccc1C(C)C	0.11	·
C=CCOC(=O)c1sc(N2C(=O)c3oc4ccccc4c(=O)c3C2c2ccccc2)nc1C (stereo not drawn)	-0.29	-0.08
OCCN1CCN(c2ncnc3c2c(-c2ccccc2)cn3-c2cccc(Cl)c2)CC1	0.86	·
CN(C)CCCN1C(=O)c2oc3ccc(Cl)cc3c(=O)c2C1c1ccccc1 (stereo not drawn)	0.95	·
O=C(CCN1CCOCC1)NCC1OCCc2ccccc21 (stereo not drawn)	·	-2.62
Cc1ccc(-c2noc(COc3cccc(C)c3)n2)cc1	·	-0.96
CC(C)Cn1c(=O)c2ccccc2n2c(CCC(=O)NCCc3c[nH]c4ccccc34)nnc12	-1	-0.46
CC(NC(=O)c1ccccc1NC(=O)C1=CSCCO1)c1ccc2c(c1)OCCO2 (stereo not drawn)	1.95	·
COc1cccc(-c2nc(-c3cccc(C)c3)no2)c1OC	0.8	-0.8
Clc1ccc2c(c1)NC(c1cccs1)=NC(c1cccs1)=N2	2.12	-2.42
O=C(CCN1C(=O)/C(=C/c2ccc3c(c2)OCO3)SC1=S)Nc1ccc2c(c1)OCO2	·	-25.1
C1=C(CCNc2ncnc3c2nc2n3CCCC2)CCCC1	0.14	·
CC(C)c1ccc(S(=O)(=O)Nc2ccc(-c3nnc(-c4ccccc4)o3)cc2)cc1	0.38	·
Cc1nc([N+](=O)[O-])c(Sc2nc3ccccc3[nH]2)n1Cc1ccccc1	-0.35	-1.63
CC(=O)Nc1ccc(S(=O)(=O)[C@H]2CS(=O)(=O)C[C@@H]2NCC2CCCO2)cc1 (stereo partly drawn)	0.01	1.01
Cc1nn(-c2ccccc2)cc1/C=N/NC(N)=S	·	-0.02
COc1cc2c(cc1OC)C(C)N(C(=O)c1noc3c1CCc1sccc1-3)CC2 (stereo not drawn)	0.04	·
CCCn1c(Cc2ccccc2)nc2ccccc21	1.01	0.38
CN(Cc1ccco1)S(=O)(=O)c1cn(C)cn1	1.06	·
C=CCNC(=O)c1cc(-c2cccnc2)nc2ccccc12	·	-2.62
COc1cc2nc(N3CCCN(C)CC3)nc(NC3CCN(Cc4ccccc4)CC3)c2cc1OC	5.11*	0.41
Cc1nc(Nc2ccc(F)cc2)[nH]c(=O)c1Br	0.46	-2.03
O=C(NCc1ccc(F)cc1)c1ccc(Cl)c(NC2=NC3CS(=O)(=O)CC3S2)c1 (stereo not drawn)	1.06	·
CC(SC1=Nc2ccccc2C2=NC(C(C)C)C(=O)N12)C(=O)Nc1ccccc1 (stereo not drawn)	-0.6	·

Structures from the list above with a COOH group:
SMILES	HIV TAR-Tat	CDC25B CDK2 inh
CC1CC(C)CN(c2cc(NCCCC(=O)O)c3c4c(onc24)-c2ccccc2C3=O)C1 (stereo not drawn)	-1.81	3.04*
N#Cc1cccnc1NNC(=O)c1ccccc1C(=O)O	·	-1.5
COc1cc(C(CC(=O)O)CC(=O)N2CCC(n3cccc3)CC2)cc(OC)c1OC (stereo not drawn)	·	-2.1
O=C(O)C1CCN(c2c(-c3ccccc3)c3cc(Cl)ccc3[nH]c2=O)CC1	-0.86	-0.79
CC(C(=O)O)C1SC(=O)NC1=O (stereo not drawn)	·	-2.25

(next part)
SMILES	HIV TAR-Tat	CDC25B CDK2 inh
N#C/C(=C\C=C\c1ccccc1)c1cccc(Cl)c1	·	-1.31
CC(C)(C)c1nnc(Nc2ccc(F)cc2)[nH]c1=O	2.59	-0.77
CCCCCOc1ccc(-c2cc(OCC)c3c(C)oc(C)c3c(=O)c2)cc1	-0.02	-1.12
Cc1csc2nc(CSc3ccccc3C(=O)O)cc(=O)n12	-1.82	-0.98
O=C(NCc1csc(-c2cccs2)n1)C1CCN(C(=O)C2CCC2)CC1	2.12	·
CCCS(=O)(=O)c1oc(-c2ccc(F)cc2)nc1S(=O)(=O)c1ccc(Cl)cc1	-0.34	-2.81
c1ccc2c(-c3nnco3)c[nH]c2c1	0.73	-1.01
Cc1cc(Nc2ccc(C(C)C)cc2)n2nc(-c3ccco3)nc2n1	-3.53	·
Cc1nn(CCCC(=O)NCc2ccco2)c(=O)c2cc3occc3n12	-0.74	0.57
O=C(Nc1ccccc1)c1nn(-c2cccc(Cl)c2)ccc1=O	2.08	-0.59

Already shown: two of the compounds above.
SMILES	HIV TAR-Tat	CDC25B CDK2 inh
N#C/C(=C\C=C\c1ccccc1)c1cccc(Cl)c1	·	-1.31
CC(C)(C)c1nnc(Nc2ccc(F)cc2)[nH]c1=O	2.59	-0.77

The listing continues:
SMILES	HIV TAR-Tat	CDC25B CDK2 inh
COC(=O)c1cn(C(=O)c2cnn3c(C(F)F)cc(-c4ccccc4)nc23)c2ccccc12	0.33	0.8
COc1cc(CN2CCN(S(=O)(=O)c3ccc(F)cc3)CC2)cc(OC)c1O	·	-1.35
Cc1ccc(C2C3=C(CCCC3=O)Nc3nc(SCc4cccc(F)c4)nn32)cc1 (stereo not drawn)	2.35	-1.04
O=C(O)c1ccc(CNCc2ccc(Cl)cc2)s1	0.22	0.82
COc1ccc(Nc2cc(Nc3cccc(OC)c3)ncn2)cc1	-0.9	1.06
Cc1ccc(Nc2nc3ccc(C)cc3c(-c3ccccc3)c2C)c(C(=O)c2ccccc2)c1	·	-3.21
CN(C)C(CNC(=O)c1cc(-c2ccc3c(c2)OCCO3)on1)c1cccs1 (stereo not drawn)	-0.55	-0.19
CCC(C(=O)NCCN(CC)c1ccccc1)n1c2ccccc2c2nc(=O)cc(C)n21 (stereo not drawn)	-0.83	1.14
Fc1cccc(-n2ncc3c2ncn2nc(Cc4ccccc4)nc32)c1	0.75	-10.4
COc1ccc(C2c3c(oc4ccc(F)cc4c3=O)C(=O)N2Cc2ccc3c(c2)OCO3)cc1OC (stereo not drawn)	-0.56	-1.13
CN1CCN(c2nc(N3CCCCC3)nc3c2cnn3C)CC1	1.25	·
Clc1ccc(-c2nnc3sc(-c4cccs4)nn23)cc1	-0.91	0.12
O=C(O)c1cccc2c1NC(c1ccccc1F)C1CC=CC21 (stereo not drawn)	·	1.06
COc1cccc(/C=N/NC(=O)CCNc2n[nH]c(=O)[nH]c2=O)c1OC	·	-2.44
COc1ccc(S(=O)(=O)Nc2noc3ccccc23)cc1	1.76	-0.17
COc1ccc(S(=O)(=O)N2CCNCC2)cc1OC	0.57	-0.03
COc1cccc(C2c3c(oc4ccc(Cl)cc4c3=O)C(=O)N2CCCN(C)C)c1 (stereo not drawn)	0.69	-1.99
CC(C)(C)C(=O)Cn1nnc(N2CCOCC2)n1	·	-1.36
O=S(=O)(c1ccc(-n2cccn2)cc1)N1CCCc2ccccc21	1.05	·
COc1cccc(C2C(C#N)=C3N=C(N)c4ccccc4N3C3=C2C(=O)CCC3)c1OC (stereo not drawn)	-6.15	-1.74
COC(=O)C1=C(C)NC2=C(C(=O)CC(c3cccs3)C2)C1c1ccc(OC)c(O)c1 (stereo not drawn)	1.93	·
Cn1nc(C(=O)N2CCCC2)c2c1-c1ccccc1S(=O)(=O)C2	1.49	10.6
Cc1ccc(N2C(=O)C3N=NN(Cc4ccccc4C)C3C2=O)cc1 (stereo not drawn)	-0.93	1.22
O=C(CSc1nc2ccsc2c(=O)n1Cc1ccc2c(c1)OCO2)c1ccc(F)cc1	·	-2.47
O=c1[nH]ccn(-c2ccc(Cl)cc2)c1=O	-0.64	-2.85
CCCNc1sc(S(C)(=O)=O)nc1S(=O)(=O)c1ccc(Cl)cc1	1.67	-6.44
COc1cnc(CSc2nccc(C)n2)cc1OCC(=O)N1CCc2ccccc21	1.94	·
Cc1ccc(-c2nc(N)n(C(=O)C(C)C)n2)cc1C	-2.01	-0.18
CCCc1nn2c(=O)cc(COc3ccc(NC(=O)CC(C)C)cc3)nc2s1	-1.16	-0.51
Cc1ccc(Cl)cc1N1C(=O)N(CC(=O)c2ccccc2)c2ccccc2S1(=O)=O	1.76	·
CN1CCN(Cc2c(O)ccc3c(=O)c(-c4ccccc4Cl)coc23)CC1	1.6	-1.05
CC(C)CN(CC(C)C)c1nnc(NC(=O)Nc2ccc3c(c2)OCCO3)s1	0.53	-1.32

Random draw from the library; any-hit rate near 0.87%.
